Calb FLC – affects C. albicans growth with fluconazole. 0.57% of 300,000 active. C. albicans CaCi-2 (fluconazole-resistant clinical isolate) + fluconazole, Alamar Blue growth, 48 h. growth inhibition, % (test concentration not listed);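 active means most replicates above 75%; inconclusive means exactly half above 75%; inactive means most below 75%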;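 further: all wells also contain fluconazole at 8 µg/ml as a sub-toxic cotreatment; 0% = median of DMSO wells and 100% = median of geldanamycin control wells; wells of about 8 µL received 7.5 nL stock; the first replicate is given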
B2AR ag – agonists of human beta-2 adrenergic receptor inducing internalization | P07550 | Am2.2-beta2AR cells, FAP receptor internalization, flow cytometry; reference of the scale not given here | response, % (test concentration not listed) | 0.43% of 340,000 active;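 active means response above a set limit, near 3 SD of response in nonfluorescent compounds, cut at about 42% in these data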;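 further: stock transfer was 100 nL into about 11 µL; a reference agonist was the positive control; negative values mostly stem from fluorescent compounds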
Target sequence (P07550 whole entry, looked up): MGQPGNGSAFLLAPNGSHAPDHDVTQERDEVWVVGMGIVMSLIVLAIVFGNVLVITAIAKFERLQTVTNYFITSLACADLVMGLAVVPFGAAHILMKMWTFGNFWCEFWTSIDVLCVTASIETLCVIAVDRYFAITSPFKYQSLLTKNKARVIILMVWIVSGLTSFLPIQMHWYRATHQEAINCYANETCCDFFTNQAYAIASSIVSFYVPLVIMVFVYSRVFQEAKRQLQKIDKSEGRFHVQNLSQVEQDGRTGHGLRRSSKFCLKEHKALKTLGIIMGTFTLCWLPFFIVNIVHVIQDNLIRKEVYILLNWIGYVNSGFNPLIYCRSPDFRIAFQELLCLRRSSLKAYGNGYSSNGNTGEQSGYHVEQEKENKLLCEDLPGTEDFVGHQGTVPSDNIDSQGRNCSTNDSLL
Beta cell apopt – beta cell apoptosis inhibition. INS-1E cytokine-induced death, ATP luminescence, 48 h; percent of positive-control rescue, neutral wells zero. protection from apoptosis, % (concentration not given with the values). 0.8% of 300,000 active. AID 435005;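 active means all replicates at 75% or more, or half of them and the mean; inconclusive means half reach 75% but not the mean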;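 further: 0% = cytokine-treated negative control wells and 100% = positive control rescue; higher means more ATP so stronger rescue from cytokine killing; wells of about 40 µL received 100 nL stock; the first replicate is given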
UCH37 inh – human UCH37 deubiquitinating enzyme inhibition. Q9Y5K5. purified proteasome/UCH37, Ub-AMC cleavage fluorescence. inhibition, % (concentration not given with the values). 0.33% of 330,000 active;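 active means mean of two replicates above 20%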;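 further: 0% = compound-free wells with enzyme and 100% = wells lacking proteasome; stock transfer was 100 nL into about 20 µL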
Target sequence (Q9Y5K5 whole entry, looked up): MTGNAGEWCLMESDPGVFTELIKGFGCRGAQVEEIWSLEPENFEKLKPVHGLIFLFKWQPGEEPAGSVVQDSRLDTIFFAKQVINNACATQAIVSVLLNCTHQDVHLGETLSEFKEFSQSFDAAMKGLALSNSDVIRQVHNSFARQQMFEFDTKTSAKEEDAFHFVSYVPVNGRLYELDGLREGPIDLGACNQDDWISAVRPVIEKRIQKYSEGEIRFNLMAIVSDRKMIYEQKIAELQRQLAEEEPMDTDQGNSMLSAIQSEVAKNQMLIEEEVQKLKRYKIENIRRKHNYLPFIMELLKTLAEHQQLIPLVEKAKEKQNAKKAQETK
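Reagent: Ub-AMC substrate; assay system: Proteasome-associated human UCH37 deubiquitinase; controls: no-proteasome and no-compound wells; read-out: % inhibition of Ub-AMC cleavage fluorescence; timing: 30 min preincubation with enzyme, 25 min cleavage at room temperature; signal: AMC fluorescence from Ub-AMC cleavage, excitation 355 nm, emission 460 nm; buffer or medium: Tris-HCl pH 7.4 plus ovalbumin, ATP-MgCl2, DTT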
Bfl-1 A1 inh – inhibitors of the anti-apoptotic protein A1, read as caspase activation. AID 2462. MEF A1-2A-BIM cells, Caspase-Glo 3/7 luminescence, 3 h; percent of clofoctol response, vehicle zero. caspase activation, % (concentration not given with the values). 0.066% of 330,000 active;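 active means over half of replicate activation scores above 10%, or exactly half above 10 with the replicate mean above 10; inconclusive means replicate mean below 10 yet half the replicates above 10; inactive means over half of replicates below 10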;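 further: wells of about 30 µL received 50 nL stock; many hits fall short of the cut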
T cruzi inh – T. cruzi replication inhibition. inhibition, % (test concentration not listed). T. cruzi beta-gal in NIH3T3, luminescence, 90 h. 1.4% of 300,000 active. AID 1885;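 active means mean inhibition across valid replicates above about 55%, limit read from the data; inconclusive means mean below that limit but half or more replicates reach it; inactive means mean below it, under half of replicates reach it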;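 further: signal also drops with host cell toxicity which is not excluded here; 0% = plate median of DMSO wells and 100% = zero luminescence signal; higher percent means less beta-gal luminescence so fewer parasites; stock transfer was 50 nL into about 50 µL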
RanGTP-Imp inh – inhibitors of RanGTP-importin-beta interaction, primary screen, biochemical, FRET, CFP-Ran, YFP-importin-beta, homogeneous; 1.1% of 300,000 active; inhibition, % (concentration not given with the values); AID 2216; cell-free CFP-Ran/YFP-importin-beta FRET ratio;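 active means most replicates above 15%; inconclusive means exactly half above 15%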;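 further: 0% = DMSO wells and 100% = Ran loaded with GDP instead of GTP; wells of about 40 µL received 100 nL stock; the first replicate is given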
LANA-H2A inh – blocks KSHV LANA binding to histone H2A/H2B; Q9QR71; cell-free LANA-H2A/H2B peptide, fluorescence polarization; inhibition, % (test concentration not listed); 0.6% of 320,000 active; AID 2629; in the data active means inhibition mostly above about 10%, no sharp cut-off; inactive means mostly below about 6.7%;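 further: stock transfer was 7.5 nL into about 10 µL; 0% = median of vehicle wells and 100% = median of positive control wells; one replicate is shown; the record names a cut of 25% in any replicate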
An asterisk follows results filed as active; ? = inconclusive; nt = no result given.

SMILES	Calb FLC	B2AR ag	Beta cell apopt	UCH37 inh	Bfl-1 A1 inh	T cruzi inh	RanGTP-Imp inh	LANA-H2A inh
Cn1nnnc1SCC(=O)NNC(=O)c1ccc(Br)cc1	2	1	nt	1.8	0.0	7	4.6	-2.5
Cc1cccc(-c2ncc(CN3CCC(CO)(CCCc4ccccc4)CC3)cn2)c1	0	-7	1	0.6	-0.4	?	-4.1	-2.0
CCN(CC)c1ccc(C=Nc2ccc(N(C)C)cc2)c(O)c1	22	-29	12	3.2	-1.6	24	1.6	1.3
CC1(C)OC(C)(C)/C(=C/Nc2ccccc2)C1=O	44	-1	-11	16	0.3	-4	6.1	-1.0
COc1ccc(N(CC(=O)NCc2ccc3c(c2)OCO3)S(=O)(=O)c2ccccc2[N+](=O)[O-])c(OC)c1	-26	5	0	1.6	-0.1	6	-0.9	4.2
CC(=O)c1ccc(N2CCN(C(=O)c3ccco3)CC2)c(F)c1	-2	3	-2	7.6	0.2	-12	2.1	6.3
COc1ccc(N(C)S(=O)(=O)c2cccc3nsnc23)cc1	0	-4	-5	3.1	-0.1	-1	-1.9	-0.3
NC(=O)CCn1nc(-c2ccc(Cl)cc2)c2ccccc2c1=O	-6	-13	-1	1.5	-0.3	-4	5.8	-1.8
CCCCc1cc2c(c(NC(C)=O)n1)c(=O)oc1ccccc12	-3	nt	nt	-49	0.0	-5	?	-2.5
O=C(N/N=C/c1cccnc1)c1ccc2c(c1)OCO2	4	2	7	nt	-0.3	-6	2.8	2.9
CSc1n[nH]c(NCc2cccs2)n1	2	0	-3	1.0	0.1	8	-2.9	-2.0
O=C(C1CCC1)N1CCC(O)(c2cccc(F)c2)CC1	-3	5	-5	0.1	0.0	-5	-3.3	2.6
COc1cc(NC(=O)CCCNC(=O)Cn2cnc3sc4c(c3c2=O)CCCC4)cc(OC)c1OC	-4	-5	nt	1.7	0.2	-10	8.8	-5.3
Nc1c(C(=O)O)sc2nc(-c3ccc(F)cc3)cc(-c3ccccc3)c12	-12	-9	-10	nt	1.0	-6	-16	-0.3
COc1cc(OC)cc(C(=O)NCCCNC(=O)c2ccccn2)c1	6	3	-4	-0.5	0.8	-7	-1.4	1.2
COc1ccc(NC(=O)CN2CCOCC2)cc1	1	-1	-5	5.4	-0.4	-6	0.7	-0.6
COC(=O)c1ccc(=O)n(CC(=O)c2ccc(Cl)cc2)c1	-6	-2	2	4.2	-0.3	-3	-1.9	-3.4
O=C(CCCCC(=O)Nc1c(I)cc(I)c(C(=O)O)c1I)Nc1c(I)cc(I)c(C(=O)O)c1I	nt	-4	-3	1.8	0.8	-10	-3.9	-6.5
CCCc1c(C)nc2ccc(OC)cc2c1SCCC(=O)O	?	10	-7	1.3	0.6	15	0.9	-6.4
COc1cc(/C=N/NC(=O)c2nc(C)cc(C)n2)ccc1O	-7	3	1	nt	-1.0	-12	-1.5	4.3
O=C(CSc1nnc(Cc2ccccc2)n1C1CCCCC1)N1CCOCC1	4	-8	-6	4.7	-0.3	9	-1.3	-16
Cc1cc2cc(CN(Cc3ccc4c(c3)OCO4)Cc3nnnn3C3CCCC3)c(=O)[nH]c2cc1C	8	-4	9	-1.9	-0.1	43	-0.2	-0.8
COc1ccc(-n2c(Cc3cccn3C)nnc2SCC(=O)Nc2cc(C)cc(C)c2)cc1	0	1	-9	1.6	-5.2	6	5.5	1.8
O=C(CCNC(=O)c1ccco1)Nc1cccc(C(F)(F)F)c1	-7	-4	0	3.4	-0.4	0	?	1.7
O=C(COc1ccc(Cl)cc1)N1CCN(c2ccc([N+](=O)[O-])c(N3CCCCC3)c2)CC1	1	-6	4	5.4	-2.4	23	1.1	-1.4
CC(=O)OCC(OC(C)=O)C(OC(C)=O)C(OC(C)=O)C(=O)Nc1ccccc1C (stereo unspecified)	-9	1	nt	1.5	0.2	-9	4.4	1.9
COc1cc(NC(=O)c2cc(-c3ccc(C)cc3)on2)cc(OC)c1OC	8	-12	3	2.3	0.3	1	1.7	-0.2
COc1ccc(C)cc1S(=O)(=O)N(C)CC(=O)NC1CCCCCC1	13	-4	0	2.3	-1.1	-3	3.3	-0.9
Cc1ccc(NC(=O)COC(=O)CN2C(=O)NC(C)(C)C2=O)cc1S(=O)(=O)N1CCOCC1	-22	-4	-1	3.0	-0.1	0	-0.7	2.0
COc1ccc(NC(=O)CCc2c(C)nc3nc(CNC(=O)c4cccc(F)c4)nn3c2C)cc1OC	-7	6	-6	3.8	0.3	-4	1.0	-1.0
Cc1ccc(C(=O)O)cc1NC(=O)Nc1ccc2c(c1)OCO2	-16	8	0	-2.5	-0.3	-7	10.0	0.8
CCN1CCN(CCCNC(=O)C2CCN(c3nnc(-n4cccc4)s3)CC2)CC1	9	-1	0	1.6	2.4	-14	?	-4.9
COC(=O)c1ccc(CSc2nnc(NC(C)C)s2)cc1	-7	4	-4	5.1	-0.2	-2	-0.3	-8.6
CSC(=NC(C)c1ccccc1)NS(=O)(=O)c1cccs1 (stereo unspecified)	25	0	1	1.9	0.3	-12	-4.2	5.3
CSC(=NC#N)N1CCN(c2cccc(Cl)c2)CC1	51	4	3	1.5	0.2	-6	-0.7	-1.6
CN1C(=O)/C(=C/c2ccc(OC(=O)c3ccco3)cc2)SC1=S	1	-17	1	3.5	-6.6	2	-0.4	4.0
C=C1CCN(c2ccc(C(=O)NCc3ccccc3)cc2[N+](=O)[O-])CC1	6	-8	0	1.5	-0.2	-2	3.1	2.7
O=C(NC(Cc1ccccc1)C(=O)O)NC12CC3CC(CC(C3)C1)C2 (stereo unspecified)	-2	3	nt	2.1	0.2	2	-2.4	0.2
COCC(=O)Nc1ccc(Nc2ccccc2)cc1	-11	-8	3	2.9	-1.1	-4	1.4	1.4
CC(=O)Nc1ccc(S(=O)(=O)N2CCC(Oc3ccc(-n4cnnn4)cc3)CC2)cc1	-13	88*	9	-1.3	0.6	7	?	-7.2
COc1ccc(/C=N\NC(=O)c2c(C)nc3ccc(Br)cn23)cc1	1	18	11	nt	0.6	-15	5.1	-1.4
CCN(CC)CC(C)(C)NS(=O)(=O)c1ccc(Cl)cc1	-11	3	1	1.1	-1.1	5	4.7	-2.1
Cc1nnc(SC(C)C(=O)NCC2CCCO2)n1-c1ccccc1 (stereo unspecified)	-10	1	-1	0.6	-0.5	-2	0.9	-4.4
N#CC(c1nc2ccccc2nc1OCCO)S(=O)(=O)c1ccccc1 (stereo unspecified)	0	-3	2	7.5	0.2	-9	23*	-1.7
Cc1ccc(/C=N/n2c(C)nnc2C)o1	8	-4	-10	nt	-0.7	-7	-12	-1.6
COc1cc(C(=O)OC(C)C(=O)Nc2ccc3c(c2)OCO3)ccc1OCc1c(C)noc1C (stereo unspecified)	4	-6	nt	1.6	-1.4	-10	1.3	-3.8
O=C(NCc1cccs1)C(=O)NCC1OCCCN1S(=O)(=O)c1ccc(F)cc1 (stereo unspecified)	14	6	-3	3.6	-0.8	-8	0.1	1.7
CCn1nc(C)c(Br)c1-c1nc(-c2ccc(C)cc2)no1	10	1	-6	2.9	-0.1	7	4.4	0.4
CC(=O)c1cccc(S(=O)(=O)N2CCC(C(=O)Oc3ccc(-c4nnco4)cc3)CC2)c1	nt	-3	-3	5.1	-1.4	nt	nt	5.0
COC(=O)c1ccccc1NC1=C/C(=N\S(=O)(=O)c2ccc(C(=O)O)cc2)c2ccccc2C1=O	43	61*	110*	90*	0.7	33	4.4	13
COc1ccc(/C=C(/NC(=O)c2ccco2)C(=O)N2CCCC2=O)cc1	6	-12	-2	2.8	0.3	-21	3.8	-1.4
Cc1cc(NCCCO)n2nc(-c3cccs3)cc2n1	6	3	4	-26	1.7	-14	-1.9	-5.9
Cc1cc(C)n(-c2ccc(C(=O)Nc3sccc3C(N)=O)cc2)n1	-4	3	nt	-9.5	-9.3	9	?	-7.6
CCOc1cccc2sc(NC(=O)c3ccc(Br)s3)nc12	0	7	23	-40	-1.2	32	-2.4	-2.0
COc1ccc(NC(=O)c2ccc(F)c(F)c2)c2ccccc12	-35	-2	-6	3.8	-0.5	-9	2.1	0.1
Cc1ccc(-c2n[nH]c(=O)c3ccccc23)cc1N	?	-1	2	0.5	-0.9	2	-0.5	-1.3
Cc1nn(CC(=O)N2CCOCC2)c(=O)c2c1sc1ccccc12	-1	-8	-1	-5.5	0.1	-6	-0.4	0.6
Cc1cc(C=O)c(C)n1-c1cc(C(F)(F)F)ccc1N1CCOCC1	nt	-1	-9	2.5	0.2	14	1.1	3.1
O=C(Nc1ccccc1O)c1ccc(C(=O)c2ccccc2)o1	4	10	-5	0.5	-0.4	-14	-4.1	3.0
CN(Cc1cccc(F)c1)C(=O)c1cc(S(=O)(=O)N2CCOCC2)ccc1N1CCCC1	nt	0	-1	1.1	1.3	nt	nt	-9.6

Additional structures:
SMILES	Calb FLC	B2AR ag	Beta cell apopt	UCH37 inh	Bfl-1 A1 inh	T cruzi inh	RanGTP-Imp inh	LANA-H2A inh
Nn1c(SCc2cccc(Br)c2)nnc1-c1ccncc1	11	-2	-3	5.7	0.2	-23	5.5	4.3
Cc1c(C)n(C(=O)CN2CCC(C(N)=O)CC2)c2ccccc12	2	6	1	2.3	-0.3	-1	5.0	3.3
O=[N+]([O-])c1cc(/C=N/NC(=S)Nc2ccccc2Cl)ccc1Cl	-1	29	13	nt	-0.2	nt	nt	-1.6
O=C(CSc1nnc2ccccn12)NCCN1C(=O)CSC1=O	-2	-6	-4	-2.0	0.1	-9	3.5	-0.5
CCN(CC)S(=O)(=O)c1ccc(Nc2ccc(-c3ccc4c(c3)OCCO4)nn2)cc1	10	4	-1	1.7	1.7	25	?	5.0
CC(C)(C)c1cc(C(=O)NNc2ccc(OC(F)(F)F)cc2)n(Cc2ccccc2)n1	81*	2	6	0.7	-0.1	39	-3.8	1.5
O=C(O)Cc1ccc(C(=O)c2ccc(Cl)cc2)s1	5	4	6	2.1	-1.2	5	0.9	2.9
COc1cccc(N2CCN(c3ccc4nnc(CCC(=O)Nc5ccc(F)cc5)n4n3)CC2)c1	38	-3	2	0.0	-0.2	-2	1.7	-0.7
CC1CCN(CC(=O)c2cccs2)CC1	6	0	-8	1.9	-0.2	-14	-2.3	3.1
CN(C)S(=O)(=O)c1cccc(-c2csc(=Nc3ccccc3)n2CCCN2CCOCC2)c1	10	6	3	3.8	-0.5	6	1.8	6.6
O=C(NC(Cc1ccccc1)C(=O)O)/C(=C/c1ccc(Cl)cc1)NC(=O)c1ccccc1 (stereo unspecified)	-7	2	-5	1.7	-0.1	-15	2.8	-3.5
O=[N+]([O-])c1ccc(/C=N/NC(=S)Nc2ccccc2)o1	29	1	0	nt	-0.8	41	-1.7	-3.2
Cc1nc(Nc2cccc(O)c2)c2oc3ccccc3c2n1	5	11	1	-28	-1.9	-2	-3.3	0.6
NC(N)=Nc1nc(CCN2C(=O)c3ccccc3C2=O)cs1	8	-18	5	-0.6	-0.2	-5	3.2	-3.6

Screens from PubChem BioAssay.
